Env fusion inh: blocks HIV Env-driven cell-cell fusion | HeLa-JRFL Env/CEM21 cell fusion, luciferase | inhibition, % at 12.3 µM | hit rate 1.1% among 360,000;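 active = mean replicate inhibition score of at least 50 and every replicate individually at or above 50; inconclusive = only one of the two criteria met; inactive = mean below 50 and not all replicates reaching 50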;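 also: 0% = plate neutral controls and 100% = maraviroc near 300 nM; one replicate is shown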
MT1-MMP act inh: blocks activation of human MT1-MMP; GFP/RFP ratio change, % at 20 µM; hit rate 0.061% among 360,000; HT1080 RFP-PRO-GFP cells, GFP/RFP ratio fluorescence, overnight; percent of plate control window, DMSO zero; P50281;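 active = GFP/RFP ratio change of at least 30% with cell ATP level not reduced by more than half and red fluorescence within 50% of control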; also: strong numbers were not always called active
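Material – HT1080 RFP-PRO-GFP cells · Control set – DMSO wells and RFP-L50D-GFP cells · Incubation – overnight cell settling, then overnight compound exposure, 37 °C, 5% CO2 · Compound dosing – single-point 20 µM compound, 1% DMSO · Read-out – GFP/RFP fluorescence ratio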
eIF4H inh: inhibitors of RNA binding by human eIF4H; hit rate 0.94% among 290,000; Q15056; inhibition, % at 35 µM; eIF4H fluorescence polarization binding assay; AID 2012;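 active = 50% or more with normal probe brightness, or confirmed in later tests; inconclusive = above 50% with abnormal brightness, or retests that disagree; inactive = below 50% or failed in later tests; about a fifth of its hits are not listed in these tables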;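 also: calls also rest on retests at 20 µM and on dose response follow-up; 0% = protein and probe with vehicle and 100% = probe without protein; strong numbers were not always called active; many hits fall short of the cut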
Rce1 inh: blocks yeast Ras-converting enzyme | calls only | hit rate 0.27% among 290,000 | yeast membranes, quenched prenylated peptide cleavage fluorescence | Q03530;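 active = fall in fluorescence gain of 50% or more versus controls, with final raw signal at or below 3038400; inconclusive = same 50% fall but final raw signal above 3038400; inactive = fall in fluorescence gain under 50%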;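 also: plate controls were neutral control wells for no effect and wells lacking membranes for full effect; tested at 10 µM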
Target sequence (Q03530 whole entry, looked up): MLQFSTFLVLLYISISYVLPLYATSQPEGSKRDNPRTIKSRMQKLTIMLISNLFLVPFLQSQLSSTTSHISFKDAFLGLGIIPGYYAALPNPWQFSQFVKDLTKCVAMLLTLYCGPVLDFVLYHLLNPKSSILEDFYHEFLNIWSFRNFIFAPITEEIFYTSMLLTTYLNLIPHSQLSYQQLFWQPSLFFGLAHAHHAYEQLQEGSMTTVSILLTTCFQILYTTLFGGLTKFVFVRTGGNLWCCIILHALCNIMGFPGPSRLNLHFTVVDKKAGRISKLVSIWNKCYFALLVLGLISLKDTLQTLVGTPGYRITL
PABP FP inh: PABP-poly(A) binding inhibition; hit rate 1% among 290,000; inhibition, % at 35 µM; PABP-poly(A) RNA binding, fluorescence polarization; P11940;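 active = 50% or more with normal probe brightness, or confirmed in later tests; inconclusive = above 50% with abnormal brightness, or retests that disagree; inactive = below 50% or failed in later tests; about a fifth of its hits are not listed in these tables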;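 also: calls also rest on retests at 20 µM and on dose response follow-up; controls were probe without protein and protein plus probe with vehicle; some compounds called inactive have numbers as strong as hits; many hits fall short of the cut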
Target sequence (P11940 whole entry, looked up): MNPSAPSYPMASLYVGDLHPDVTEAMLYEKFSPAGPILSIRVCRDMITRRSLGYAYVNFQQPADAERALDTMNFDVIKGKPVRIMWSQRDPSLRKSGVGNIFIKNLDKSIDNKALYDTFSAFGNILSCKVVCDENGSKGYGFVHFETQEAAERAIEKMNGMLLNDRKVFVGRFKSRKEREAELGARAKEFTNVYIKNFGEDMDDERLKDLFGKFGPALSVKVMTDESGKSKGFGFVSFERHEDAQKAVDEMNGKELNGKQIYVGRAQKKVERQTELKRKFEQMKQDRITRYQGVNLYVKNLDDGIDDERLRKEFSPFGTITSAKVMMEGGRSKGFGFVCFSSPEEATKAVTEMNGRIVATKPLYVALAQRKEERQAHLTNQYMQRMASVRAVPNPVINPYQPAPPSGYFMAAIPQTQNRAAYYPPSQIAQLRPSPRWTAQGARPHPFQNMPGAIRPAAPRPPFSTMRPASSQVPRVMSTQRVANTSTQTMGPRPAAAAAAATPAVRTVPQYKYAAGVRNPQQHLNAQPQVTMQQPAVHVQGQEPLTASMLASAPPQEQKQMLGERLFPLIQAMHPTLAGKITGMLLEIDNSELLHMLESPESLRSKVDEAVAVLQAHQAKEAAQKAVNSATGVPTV
CSC inhib: blocks cancer stem cells; cancer stem cell-like cells viability, luminescence; hit rate 1.1% among 300,000; inhibition, % at 7.5 µM;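 active = mean at 75% or more and at least half the replicates too; inconclusive = mean and replicates disagree; tested in HMLE shEcad cells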;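 also: 0% = median of negative and 100% = median of positive control wells; the first replicate is given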
Yeast UUG start: yeast start codon fidelity modulation; S. cerevisiae UUG-firefly luciferase reporter, luminescence/redox ratio; activity score, % at 18.7 µM; hit rate 0.13% among 350,000; AID 602363;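 active = replicate mean at a twofold rise or more, about +100% in these data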;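 also: firefly luciferase made from a UUG start codon reports start codon fidelity; reporter light over untreated wells divided by growth signal over untreated wells; some hits fall short of that in this replicate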
eIF4H inh retest: also measured in eIF4H inh; calls as there; inhibition, %; compound at 20 µM; confirmation average;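 mean of two retest wells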
PABP FP inh retest: also measured in PABP FP inh; calls as there; inhibition, %; compound at 20 µM; confirmation repeats;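 mean of two retest wells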
MT1-MMP act inh RFP: second read-out of MT1-MMP act inh, no call of its own (marks repeat the call); RFP signal change, %; measured here: RFP expression control read;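 0 = vehicle wells; hits needed this value within 50% of zero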
Active calls of the source: *; i = inactive; ? = inconclusive; · = not tested or not shown. Only part of the results is shown; the hit share may differ from the screen's.

SMILES | Env fusion inh | MT1-MMP act inh | MT1-MMP act inh RFP | eIF4H inh | Rce1 inh | PABP FP inh | CSC inhib | Yeast UUG start | others
COc1ccc(N(CC(=O)NCCC2=CCCCC2)S(C)(=O)=O)cc1OC | · | 2 | 0 | -5 | i | -4 | -8 | -6
Cc1ccc(CNC(=O)C2CCCN(S(=O)(=O)N3CC(C)CC(C)C3)C2)cc1 (stereo unspecified) | -1 | -4 | -4 | · | i | · | -3 | -6
COc1ccc(N(CC(=O)NC(C)C)C(=O)CCC(=O)Nc2ccccn2)cc1 | -22 | 0 | 4 | -6 | i | 0 | 3 | -10
CCC(CC)c1nnc(NC(=O)c2cc([N+](=O)[O-])ccc2N2CCOCC2)s1 | · | 6 | -3 | · | · | · | 6 | -10
CCN1CCN(C(=O)c2ccc(Cl)c(S(=O)(=O)N3CCCCCC3)c2)CC1 | 3 | 4 | 0 | -2 | i | 5 | -5 | ·
COc1ccc(N2CC(C(=O)NNC(=O)c3ccc(Br)cc3)CC2=O)c(OC)c1 (stereo unspecified) | · | 2 | 3 | · | i | · | -14 | -16
COC(=O)[C@]1(Cc2ccccc2)N[C@H](CN(C)C(=O)Nc2ccccc2)[C@@H]2C(=O)N(C)C(=O)[C@@H]21 | -29 | 3 | 6 | · | · | · | · | -8
O=C(CCCN1C(=O)/C(=C/c2ccccc2)SC1=S)NCCCn1ccnc1 | 6 | -9 | -3 | -10 | i | -8 | 90* | -11
O=C(COc1ccc2c3c(c(=O)oc2c1)CCC3)Nc1ccccn1 | -26 | -4 | -1 | -6 | i | 12 | 3 | -27
O=C(N/N=C/c1ccccn1)c1cccc([N+](=O)[O-])c1 | 9 | 13 | 3 | 8 | i | -4 | -1 | ·
Cc1cccc(Nc2nnc(-c3ccc(N4CCOCC4)c([N+](=O)[O-])c3)c3ccccc23)c1 | 35 | 2 | -9 | -4 | · | -14 | 51 | -14
Cc1ccn2cc(-c3ccc(NC(=O)c4ccco4)cc3)nc2c1 | -113 | 7 | 1 | -2 | i | -11 | -11 | -3
COc1cccc(C(=O)N(Cc2nc(-c3ccc(C)cc3)no2)C(C)C)c1 | 1 | 2 | -4 | -1 | i | -16 | -3 | 2
Cc1ccc(N2C(=O)C3CCCN3C2=S)cc1 (stereo unspecified) | -15 | -1 | -2 | 8 | i | -1 | -2 | -13
Cn1c(=O)c2c(nc(N/N=C/c3ccco3)n2C)n(C)c1=O | -3 | -1 | -2 | -4 | i | 11 | 1 | 3
Cc1cccc(OCCCC(=O)Nc2ccc(S(N)(=O)=O)cc2)c1 | 14 | 4 | 5 | -4 | i | 2 | 1 | -22
COc1ccc(Nc2nnc(SCC(=O)c3cc4ccccc4o3)s2)cc1 | -11 | -6 | 7 | 12 | i | 13 | -4 | ·
Cn1nc(OCc2ccccc2)ccc1=O | 5 | -1 | 6 | -1 | · | 1 | -4 | -12
CC(=O)NC(=O)c1cnn(-c2ccccc2)c1N | 20 | -2 | 4 | -5 | i | -7 | -10 | ·
Cc1ccc(C2=N/C(=C\c3ccc(OS(=O)(=O)c4ccc(C)cc4)cc3)C(=O)O2)cc1 | -1 | 0 | 2 | -10 | i | 0 | 6 | ·
O=C(NCc1n[nH]c(=S)n1-c1ccc(F)cc1)c1ccco1 | 6 | 6 | 5 | -2 | i | 6 | -11 | -10
O=C(CN1C(=O)CC(c2ccco2)Sc2ccccc21)Nc1ccccc1F (stereo unspecified) | 21 | -5 | -1 | 0 | i | -9 | -5 | -7
O=C(CC1C(=O)NCCN1Cc1ccc(Cl)c(F)c1)NC1CCCCC1 (stereo unspecified) | 11 | -2 | 3 | 16 | i | 13 | -3 | 0
O=C(Nc1ccc(N2CCCC2)cc1)c1ccc(Cl)cc1Cl | 3 | -1 | -1 | 8 | i | -1 | · | -10
Cc1ccc(NC(=O)c2ccc(OCc3c(C)noc3C)cc2)nc1 | -2 | -6 | -23 | · | · | · | -11 | -12

The list continues.
SMILES | Env fusion inh | MT1-MMP act inh | MT1-MMP act inh RFP | eIF4H inh | Rce1 inh | PABP FP inh | CSC inhib | Yeast UUG start | others
COc1cccc(N2CCN(Cc3ncc(-c4ccccc4)o3)CC2)c1 | 16 | -1 | 0 | -4 | i | 2 | 0 | -2
Cc1ccc(NC(=O)CN(C)C(=O)COc2ccc(C(=O)c3ccc(F)cc3)cc2)cc1 | 1 | 1 | -2 | -1 | i | 5 | -4 | ·
CN(Cc1nc2ccccc2n1C)c1ccccc1 | -8 | 1 | -3 | -15 | i | -2 | 6 | -13
COc1ccc(C(=O)C2CCCN(C(=O)c3cc(C4CC4)[nH]n3)C2)c(C)c1 (stereo unspecified) | -4 | 4 | 1 | -6 | i | -6 | 13 | -4
CCOc1ccc(C(=O)NCCCN2CCCC2=O)cc1 | -50 | -7 | 2 | 7 | i | -4 | -9 | -6
O=C(O)CN1C(=O)CC(c2ccccc2)CC1=O | -4 | 3 | 2 | 1 | i | 1 | -14 | -21
O=C(COC(=O)CC1CCCC1)Nc1ccc(Br)cc1F | -4 | -2 | 4 | · | · | · | -9 | -1
O=C1C2CC=CCC2C(=O)N1c1ccc(NCCc2ccccc2)c([N+](=O)[O-])c1 (stereo unspecified) | 19 | 8 | -1 | -3 | i | -3 | 80* | ·
CCCCCOc1ccc(OC(=O)c2ccncc2)cc1 | 23 | 3 | 8 | -10 | i | -9 | 93* | ·
CC(NCC(O)COc1ccccc1)C1COc2ccccc2O1 (stereo unspecified) | 6 | -2 | 2 | 5 | i | -2 | -13 | -3
COC(=O)CCC(=O)NNC(=O)c1cccc(Cl)c1 | -13 | -3 | 2 | -5 | i | 0 | 2 | -10
O=c1c(-c2ccc(Cl)cc2)cnc2n1CCS2 | 17 | 2 | 2 | 4 | i | -7 | -7 | ·
O=S(=O)(c1ccc(NCCCO)nc1)N1CCOCC1 | 9 | 0 | 2 | · | · | · | · | -20
O=S(=O)(NCCc1ccncc1)c1ccc(S(=O)(=O)N2CCCCCC2)cc1 | 16 | 0 | -1 | -10 | i | -10 | 20 | -3
COc1ccccc1NC(=O)CSc1nnc(CSc2nc(C)cc(C)n2)o1 | 3 | -3 | 2 | -4 | i | 0 | -3 | ·
CN(Cc1ccc(-n2cccn2)cc1)Cc1cn(C)nc1-c1ccccc1F | 19 | -1 | -1 | -7 | i | 2 | · | ·
COc1cc(NC(=O)CSc2nc(C)cc(C)n2)cc(OC)c1OC | 9 | 3 | -4 | -7 | i | -7 | -1 | 1
COC(=O)c1sc2nc3c(cc2c1N)COC(C)(C)C3 | · | 5 | 3 | -2 | i | 2 | -5 | -12
COc1ccc(NC(=O)c2ccsc2NC(C)=O)cc1 | -15 | -1 | 1 | -8 | i | 0 | -2 | ·
O=C1CN(C(=O)c2ccccc2F)C(c2ccccc2)c2cc(F)ccc2N1 (stereo unspecified) | 12 | -10 | -4 | -6 | i | -1 | -5 | -5
CCS(=O)(=O)N1CCC(C(=O)NCCN2CCOCC2)CC1 | 21 | 4 | 2 | -5 | i | 9 | -6 | ·
O=C(NCC(c1ccco1)N1CCN(c2ccccc2)CC1)c1ccco1 (stereo unspecified) | · | 0 | -1 | · | i | · | 1 | -8
Cc1ccc(NCc2ccco2)cc1C | -168 | -2 | 2 | 8 | i | -2 | -3 | ·
COc1ccccc1NC(=O)C1CC(=O)N(c2ccc(F)cc2)C1 (stereo unspecified) | -34 | 7 | 3 | -3 | i | -8 | · | -8
CCn1ncc(/C=N\NC(=O)Cc2ccc([N+](=O)[O-])cc2)c1C | · | -4 | -7 | 4 | i | 0 | -6 | -11

Going on with the list.
SMILES | Env fusion inh | MT1-MMP act inh | MT1-MMP act inh RFP | eIF4H inh | Rce1 inh | PABP FP inh | CSC inhib | Yeast UUG start | others
O=C(CCS(=O)(=O)c1ccccc1)Nc1cccc(-c2nc3ccccc3s2)c1 | -59 | 3 | -6 | 0 | i | 45 | 22 | -6
Cc1cc(F)ccc1-c1cc(C(=O)N2CCN(c3ccncc3)CC2)[nH]n1 | 24 | 0 | -3 | · | · | · | · | -4
COc1ccc(N2CCN(C(=O)CSc3nnc(C)c(=O)[nH]3)CC2)cc1 | · | -2 | 3 | 6 | i | 11 | -7 | -7
CC(C)(C)C(=O)N1N=C(c2ccc(NS(C)(=O)=O)cc2)CC1c1cccs1 (stereo unspecified) | -6 | -4 | -5 | 6 | ? | -3 | 0 | ·
Cc1ccc(C2=NC(C)(C)N=C2SCC(=O)Nc2ccc(Cl)cc2)cc1 | -36 | -1 | -9 | -9 | · | -7 | -7 | -1
CC(C)(C)NC(=O)CSc1nc2ccc(Nc3nc(N4CCOCC4)nc(N4CCOCC4)n3)cc2s1 | 7 | -14 | -19 | 10 | i | -1 | 9 | ·
Cc1cnc(CNC(=O)CC2C(=O)NCCN2Cc2ccccc2C(F)(F)F)cn1 (stereo unspecified) | 3 | -1 | 4 | 66 | i | 57 | -17 | -21 | eIF4H inh retest=12;PABP FP inh retest=42
Cc1ccc(-c2csc(NC(=O)CSc3ncn(-c4ccccc4)n3)n2)cc1 | -4 | 3 | -3 | 5 | i | 1 | -11 | -8
CC(C)CCCN1CCN=C1Nc1ccccc1 | -13 | -1 | 6 | 3 | i | 8 | -5 | -4
Cc1ccc(NC(=O)CN2C(=O)N/C(=C/c3ccc(C)o3)C2=O)cc1 | · | -17 | 5 | 8 | i | 5 | -15 | -14
Cc1ccc(S(=O)(=O)NCCC(=O)NCC(c2cccs2)N(C)C)cc1C (stereo unspecified) | 2 | -2 | 0 | · | · | · | -1 | -10
COc1cc(OC)c(NS(=O)(=O)c2ccc3c(c2)NC(=O)CO3)cc1Cl | -7 | 6 | -10 | 4 | i | 2 | -10 | 9

Ten entries already listed, ordered by molar mass, low to high:
SMILES | Env fusion inh | MT1-MMP act inh | MT1-MMP act inh RFP | eIF4H inh | Rce1 inh | PABP FP inh | CSC inhib | Yeast UUG start | others
CC(C)CCCN1CCN=C1Nc1ccccc1 | -13 | -1 | 6 | 3 | i | 8 | -5 | -4
CCn1ncc(/C=N\NC(=O)Cc2ccc([N+](=O)[O-])cc2)c1C | · | -4 | -7 | 4 | i | 0 | -6 | -11
Cc1ccc(NC(=O)CN2C(=O)N/C(=C/c3ccc(C)o3)C2=O)cc1 | · | -17 | 5 | 8 | i | 5 | -15 | -14
COc1cc(OC)c(NS(=O)(=O)c2ccc3c(c2)NC(=O)CO3)cc1Cl | -7 | 6 | -10 | 4 | i | 2 | -10 | 9
CC(C)(C)C(=O)N1N=C(c2ccc(NS(C)(=O)=O)cc2)CC1c1cccs1 (stereo unspecified) | -6 | -4 | -5 | 6 | ? | -3 | 0 | ·
Cc1ccc(-c2csc(NC(=O)CSc3ncn(-c4ccccc4)n3)n2)cc1 | -4 | 3 | -3 | 5 | i | 1 | -11 | -8
Cc1ccc(S(=O)(=O)NCCC(=O)NCC(c2cccs2)N(C)C)cc1C (stereo unspecified) | 2 | -2 | 0 | · | · | · | -1 | -10
Cc1cnc(CNC(=O)CC2C(=O)NCCN2Cc2ccccc2C(F)(F)F)cn1 (stereo unspecified) | 3 | -1 | 4 | 66 | i | 57 | -17 | -21 | eIF4H inh retest=12;PABP FP inh retest=42
O=C(CCS(=O)(=O)c1ccccc1)Nc1cccc(-c2nc3ccccc3s2)c1 | -59 | 3 | -6 | 0 | i | 45 | 22 | -6
CC(C)(C)NC(=O)CSc1nc2ccc(Nc3nc(N4CCOCC4)nc(N4CCOCC4)n3)cc2s1 | 7 | -14 | -19 | 10 | i | -1 | 9 | ·

High-throughput results (PubChem BioAssay)
